# Screens from PubChem.
# TRPML1 blocker = human mucolipin-1 channel inhibition; Q9GZU1; TRPML1-inducible cells, Ca2+ dye fluorescence, FDSS; hits give low values; inhibition of EC80 agonist-evoked calcium signal; activity change, negative = inhibition, % (no concentration beside the values); 390,000 compounds, 0.02% hits; in the data active means activity change below about -50%; inconclusive means about -30% to -50%; inactive means above about -30%;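 note: stimulus is agonist 54-4 at its EC80 concentration; % is set by controls: 0 for no effect and ±100 for the full control effect; compound concentration not given in the record; the text of the record puts the active cut at -80%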
# Target sequence (Q9GZU1 whole entry, looked up): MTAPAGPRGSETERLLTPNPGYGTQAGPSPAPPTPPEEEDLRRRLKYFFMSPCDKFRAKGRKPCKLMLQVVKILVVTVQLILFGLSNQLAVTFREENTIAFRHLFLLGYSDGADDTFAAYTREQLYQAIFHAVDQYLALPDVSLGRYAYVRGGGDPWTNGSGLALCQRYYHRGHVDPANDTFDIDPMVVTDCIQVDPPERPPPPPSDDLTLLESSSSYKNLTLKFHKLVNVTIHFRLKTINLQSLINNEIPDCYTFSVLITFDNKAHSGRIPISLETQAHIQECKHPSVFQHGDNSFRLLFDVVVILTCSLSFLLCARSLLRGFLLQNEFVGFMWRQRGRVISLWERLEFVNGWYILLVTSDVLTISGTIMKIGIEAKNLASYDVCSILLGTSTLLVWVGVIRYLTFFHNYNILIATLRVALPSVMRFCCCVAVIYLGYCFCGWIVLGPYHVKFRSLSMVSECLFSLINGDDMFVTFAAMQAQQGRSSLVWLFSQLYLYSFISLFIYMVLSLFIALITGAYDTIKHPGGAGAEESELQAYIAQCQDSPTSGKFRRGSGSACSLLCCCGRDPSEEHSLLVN
#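 Tet-induced TRPML1-DL cells loaded with Ca8 no-wash calcium dye were read kinetically on FDSS. Compound addition was followed by EC80 agonist 54-4 (4 uM final); inhibition was read over 110 s.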
# TRPV1 potentiator = potentiators of human vanilloid receptor 1 (TRPV1); TRPV1-expressing cells, Fluo-8 calcium influx, capsaicin EC20 potentiation; host cell line not named in the record; control for the full effect not named in the record; 320,000 compounds, 0.02% hits; Q8NER1; potentiation, % at 8.33 µM; AID 540277; active means potentiation above 80%; inconclusive means 30% to 80%; inactive means below 30%; note: 0% is about no effect
#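 Fluo-8 calcium influx in TRPV1-expressing cells, kinetic read (ex 480/em 520 nm). Compound added and read 3 min for agonist activity, followed by capsaicin at EC20 final and 2 min further read for enhancement.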
# D2 PAM = potentiates the human D2 dopamine receptor allosterically | P14416 | DiscoveRx D2 beta-arrestin cells, luminescence, 90 min; 100% = 57 uM dopamine signal | potentiation, % (concentration not given with the values) | 360,000 compounds, 0.23% hits; active = potentiation of 50% or more; inconclusive = 30% to 50%; inactive = 30% or less;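 note: tested on top of an EC20 dose of dopamine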
# Target sequence (P14416 whole entry, looked up): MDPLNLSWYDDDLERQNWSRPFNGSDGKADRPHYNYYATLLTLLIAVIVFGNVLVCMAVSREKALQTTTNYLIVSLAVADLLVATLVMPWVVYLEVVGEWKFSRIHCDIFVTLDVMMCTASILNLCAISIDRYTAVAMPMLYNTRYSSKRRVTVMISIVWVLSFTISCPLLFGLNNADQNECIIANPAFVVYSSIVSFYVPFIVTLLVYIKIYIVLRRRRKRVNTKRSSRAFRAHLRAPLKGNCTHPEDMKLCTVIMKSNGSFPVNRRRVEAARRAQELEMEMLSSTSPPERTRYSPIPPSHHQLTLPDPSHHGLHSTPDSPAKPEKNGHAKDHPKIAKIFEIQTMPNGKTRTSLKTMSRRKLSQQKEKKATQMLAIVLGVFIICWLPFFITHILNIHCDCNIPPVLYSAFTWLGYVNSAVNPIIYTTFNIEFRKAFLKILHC
#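 D2 cells co-treated with compound plus 50 nM dopamine (EC20) for 90 min at 37 deg C to detect potentiation. Beta-arrestin recruitment was read as enzyme-fragment luminescence after 1 h at ambient temperature. Full response was set by 57 uM dopamine.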
# CtBP-E1A blk = CtBP/E1A binding inhibition; AlphaScreen GST-E1A/His-CtBP binding, 1536-well; hits give low values; control for the full effect not named in the record; activity change, % (test concentration not listed); 340,000 compounds, 0.49% hits; in the data active means activity change below about -65%; inconclusive means about -30% to -65%; inactive means above about -30%; note: % is set by controls: 0 for no effect and ±100 for the full control effect
#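 Steps: dispense buffer (Tris pH 8.0, NaCl 300 mM, TCEP 1 mM, BSA, Tween 20); add 5X protein mix (GST-E1A, His-CtBP, 125 nM each); pin 23 nL compound; 2 h at 37 °C, dark; add 5X beads (50 ug/mL); 1 h; read.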
# TRPML1 agonist = human mucolipin-1 channel agonism | Q9GZU1 | TRPML1-expressing cells, Ca2+ dye fluorescence, FDSS; host cell line not named in the record; reference of the full effect not given here | activation, % (concentration not given with the values) | 410,000 compounds, 0.12% hits; in the data active = activation above about 50%; inconclusive = about 30% to 50%; inactive = below about 30%; note: 0% is about no effect; the text of the record puts the active cut at 80%
#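 Kinetic FDSS Ca2+ read in Tet-induced TRPML1-DL cells (ABD Ca8 dye plus quencher, 45-90 min RT loading): baseline, then compound, then 110 s agonist window; EC80 agonist 54-4 at 4uM final added afterwards for a 110 s antagonist window.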
# Six1-Eya2 inh = inhibitors of human Six1/Eya2 interaction; 360,000 compounds, 0.56% hits; Q15475+O00167; activity change, % (test concentration not listed); AlphaScreen GST-Six1/His-Eya2 binding, biochemical; hits give low values; control for the full effect not named in the record; in the data active = activity change below about -65%; inconclusive = about -30% to -65%; inactive = above about -30%; note: % is set by controls: 0 for no effect and ±100 for the full control effect
#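 Compounds are tested against tagged Six1 and Eya2 proteins bridged by glutathione donor and nickel acceptor beads; after a one-hour incubation at 37 °C without light, AlphaScreen emission is recorded.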
# Numbers without * were called inactive; ? = inconclusive; · = no result given; & = joins results of further samples.
SMILES,TRPML1 blocker,TRPV1 potentiator,D2 PAM,CtBP-E1A blk,TRPML1 agonist,Six1-Eya2 inh
O=C1CCC([N+](=O)[O-])C(c2ccc(C(F)(F)F)cc2)N1 (stereo unspecified),-6,·,-5,4,-0.3,-16
NS(=O)(=O)c1ccc(CCNC(=O)c2ccc3c(c2)OCCO3)cc1,4,4,-6,-1,-0.6,0
COc1c(C)cc(C(=O)C2CCCN(C(=O)CCCn3cncn3)C2)cc1C (stereo unspecified),8,-1,-12,21,0.8,7
CCCc1cnc(N2CCN(S(C)(=O)=O)CC2)nc1,18,8,-20,·,-0.7,6
COc1ccc(C(=O)Nc2cc(C)c(NC(=O)c3ccccn3)cn2)cc1,-9,0,-3,-4,0.0,-6
CN1C(=O)N(CC(=O)Nc2ccc3c(c2)OCO3)C(=O)C12CCCCC2,-7,·,-9,3,-0.4,2
CC(C)Oc1ccc(Cc2cnc(N)nc2N)cc1,-7,-7,-3,3,-0.9,-3
Cc1ccc(-c2ccc(/C=C3\C(=O)ON=C3c3ccccc3)o2)c([N+](=O)[O-])c1,-6,3,-1,-2,-0.1,-3
Cc1nc2c(OCc3ccc(C(F)(F)F)cc3)cccn2c1N(C)C(=O)CCC1CCCC1,46,·,-17,0,-0.8,-4
CCOc1ccc(N=C2NN=C(c3cc(C)n(CC4CCCO4)c3C)CS2)cc1 (stereo unspecified),-4,4,-7,0,-0.7,2
O=C(O)c1cc(N/C(=N\S(=O)(=O)c2ccc(F)cc2)c2ccccc2)ccc1O,22,-15,-26,3,0.4,-1
Cc1cc(C2=NNC(=NC3CC3)SC2)c(C)n1Cc1ccco1,46,-2,1,-2,1.8,-5
O=C(Nc1cccc(Cl)c1N1CCCC1)c1cc2ccccc2o1,14,-8,-30,2,1.7,-6
O=C(COc1ccccc1)Nc1ccc(CN2CCCCC2)cc1,2,4,-7,-2,4.3,-1
CCOC(=O)CSc1nnc(NC(=O)c2ccco2)s1,-15,1,-4,·,0.2,3

# 5 records picked at random from those above, as already listed:
SMILES,TRPML1 blocker,TRPV1 potentiator,D2 PAM,CtBP-E1A blk,TRPML1 agonist,Six1-Eya2 inh
O=C1CCC([N+](=O)[O-])C(c2ccc(C(F)(F)F)cc2)N1 (stereo unspecified),-6,·,-5,4,-0.3,-16
CCCc1cnc(N2CCN(S(C)(=O)=O)CC2)nc1,18,8,-20,·,-0.7,6
O=C(Nc1cccc(Cl)c1N1CCCC1)c1cc2ccccc2o1,14,-8,-30,2,1.7,-6
Cc1nc2c(OCc3ccc(C(F)(F)F)cc3)cccn2c1N(C)C(=O)CCC1CCCC1,46,·,-17,0,-0.8,-4
CCOC(=O)CSc1nnc(NC(=O)c2ccco2)s1,-15,1,-4,·,0.2,3

# Carrying on:
SMILES,TRPML1 blocker,TRPV1 potentiator,D2 PAM,CtBP-E1A blk,TRPML1 agonist,Six1-Eya2 inh
CS(=O)(=O)c1ccc(CNC(=O)C2(C(F)(F)F)C/C(=C/CCO)CCCO2)cc1 (stereo unspecified),7&-9,·,0,2,3.2&0.9,0
COc1cc(/C=N/Nc2nc(C)cc(=O)[nH]2)cc(OC)c1O,6,8,-4,?,0.7,?
CCCN(CCC)S(=O)(=O)c1ccc(C(=O)NCc2ccco2)cc1,-13,-6,-5,-1,0.7,-8
CCCn1nnc(NC(=S)NC(=O)/C=C/c2ccco2)n1,9,13,-8,-2,1.1,-4
CN(C)c1ncnc2c1ncn2[C@H]1CN(Cc2ccccc2)C[C@@H](CO)O1,·,·,-4,2,-0.5,2
COc1ccc(-c2cc(C(=O)N3CC4(C)CC3CC(C)(C)C4)no2)cc1OC (stereo unspecified),24,-6,-10,0,2.2,14
COc1ccc2[nH]c3c(C)c4ccncc4c(C)c3c2c1,·,15,-50,?,·,?
COc1ccc(N2CCN(C(c3cccs3)C(C)NC(=O)c3ccco3)CC2)cc1 (stereo unspecified),-3,-4,-7,?,0.5,-17
CCN1CCN(CC(O)COCc2cc(OC)c(OC)c(OC)c2)CC1 (stereo unspecified),4,17,-6,1,-0.5,11
CCOC(=O)C(C(=O)Nc1nccs1)C1CCCCC1 (stereo unspecified),-9,3,-5,1,0.2,7
Clc1ccc(OCc2nc(-c3ccncc3)no2)cc1,-8,10,4,6,1.5,4
COc1ccc(-n2nc3c(c2NC(=O)COc2ccccc2F)CS(=O)(=O)C3)cc1,23,2,-2,6,0.6,-1
Cc1ccc(NC(=O)CCn2cnc3ccccc3c2=O)cc1,38,14,5,0,1.8,2
O=C(NCCc1ccccc1)c1ccc2nc(N3CCOCC3)sc2c1,0,-22,7,6,-0.8,10
Cc1cccc(C)c1OCC(=O)Nc1ccc2c(c1)C(=O)NC2=O,3,-19,-6,-11,1.0,-5
CC1CCCC(NC(=O)COC(=O)c2ccccc2C(=O)N(C)C2CCCCC2)C1C (stereo unspecified),19,·,-28,-3,-0.9,-13
O=C(C[n+]1cc(-c2ccccc2)n2c1CCC2)c1cccs1,24,9,-8,6,0.1,0
Cc1c(Cl)cnc(NC(=O)COC(=O)c2cccc(S(=O)(=O)N3CCc4ccccc4C3)c2)c1Cl,28,1,-19,2,-0.2,3
COc1ccc(-c2nc3ccccc3c(=O)n2CCc2ccc(O)cc2)cc1,28,4,0,·,4.2,-10
Cc1ccc(C(=O)N(CCN(C)C)CC2CCCN(Cc3ccccc3F)C2)cc1C (stereo unspecified),8,-22,-11,-5,0.7,-7
CC(=O)O[C@@H]1[C@H](OC(=O)CC(C)C)c2c(ccc3ccc(=O)oc23)OC1(C)C,3,-20,5,0,0.9,-10
O=C1C(Cl)=C(Nc2ccccc2)C(=O)c2ccccc21,-5,-22,21,-9,-0.7,-3
COc1cc(OC)cc(C(=O)Nc2ccc3c(c2)n(C)c(=O)n3C)c1,3,-4,3,-19,-0.3,-18
O=C(NCCCN1CCN(c2ccccc2F)CC1)C1CCC(=O)N1C1CCCCC1 (stereo unspecified),7,2,-3,7,-0.2,-2
CCOc1cc(C(=O)N2CCC(CC3CC(c4cccc(Br)c4)=NO3)(C(=O)NCC3CCCCC3)CC2)cc(OCC)c1OCC (stereo unspecified),10,5,-9,-6,-0.3,-11
OC1(c2ccccc2)CC(c2ccccc2)c2ccccc2O1 (stereo unspecified),-4,·,-8,-7,0.3,-9
COc1ccc(S(=O)(=O)NCc2ccc3c(c2)OCO3)cc1C,-5,1,-9,-5,0.3,1
CCOc1ccc2oc(=O)cc(C)c2c1,16,13,-6,-1,1.0,7
COc1cc(NC2c3ccccc3C(=O)N2Cc2ccc3c(c2)OCO3)cc(OC)c1 (stereo unspecified),-7,-6,3,-5,0.6,-10
CC(=O)Nc1sc(NC(=O)c2ccc(C)cc2)nc1-c1cccs1,-3,4,3,0,-1.0,-2
O=C1CC(c2ccccc2)CC(O)=C1C=NCCc1ccccc1 (stereo unspecified),7,84*,-19,5,-1.3,-18
COc1ccc(-c2nc(-c3ccccc3)ncc2S(C)(=O)=O)cc1,9,4,-16,-11,-0.1,16
C=CCN1C(=O)SC(Cc2cccc(OC)c2O)C1=O (stereo unspecified),-11,-4,-3,6,-0.6,1
CC1CCN(C(=O)c2ccc(S(=O)(=O)N3CCCC3)cc2)CC1,-5,-1,-3,2,-0.2,-1
CC(Oc1ccc2c(-c3ccccc3)cc(=O)oc2c1)C(=O)N1CCOCC1 (stereo unspecified),-3,·,1,4,1.6,-1
Cc1c(C(=O)Nc2ccncc2)oc2c1C(=O)CC(C)(C)C2,-9,-30,2,23,0.9,-5
O=C(Cc1ccccc1)NCc1ccc2c(c1)OCO2,-7,-7,-14,7,1.0,23
CCOc1ccccc1NC(=O)CSc1nnnn1-c1ccc(C(=O)OC)cc1,-2,-2,-7,8,0.3,7
COc1ccc(OC)c(S(=O)(=O)Nc2cccc3ccccc23)c1,1,·,-1,-6,-0.6,-7
N#Cc1ccc(C(=O)Nc2cc(S(=O)(=O)Nc3ccc(Cl)cc3)ccc2N2CCCCC2)cc1,-13,8,-7,6,0.8,3
CCOC(=O)CC1C(=O)NCCN1S(=O)(=O)c1cccc(C(F)(F)F)c1 (stereo unspecified),-9,3,-12,1,-0.4,10
CCOC(=O)c1ccccc1NC(=O)Cc1c(C(=O)O)n(C)c2ccccc12,10,10,-5,1,0.4,-6
CCOC(=O)c1cc2oc(C)cc2n1CC(=O)OC1CCCCC1,-13,-9,-11,1,0.0,-4
CSc1cccc(-n2c(C)cc(C(N)=O)c2C)c1,0,-8,4,-1,-0.7,-7
CCOC(=O)c1ccc(N(CCC2CO2)S(=O)(=O)c2ccc(C)cc2)cc1 (stereo unspecified),80,·,-13,-16,5.0,8

# Compound profiles, from the list above. Screens in order: TRPML1 blocker | TRPV1 potentiator | D2 PAM | CtBP-E1A blk | TRPML1 agonist | Six1-Eya2 inh
# `CSc1cccc(-n2c(C)cc(C(N)=O)c2C)c1` is listed with 0 | -8 | 4 | -1 | -0.7 | -7
# `CC(Oc1ccc2c(-c3ccccc3)cc(=O)oc2c1)C(=O)N1CCOCC1` (stereo unspecified) is listed with -3 | · | 1 | 4 | 1.6 | -1

# Reformatted: 4 of the compounds above
# Results follow in this order: TRPML1 blocker, TRPV1 potentiator, D2 PAM, CtBP-E1A blk, TRPML1 agonist, Six1-Eya2 inh
N#Cc1ccc(C(=O)Nc2cc(S(=O)(=O)Nc3ccc(Cl)cc3)ccc2N2CCCCC2)cc1
    -13, 8, -7, 6, 0.8, 3
CCOC(=O)CC1C(=O)NCCN1S(=O)(=O)c1cccc(C(F)(F)F)c1 (stereo unspecified)
    -9, 3, -12, 1, -0.4, 10
CCOC(=O)c1ccccc1NC(=O)Cc1c(C(=O)O)n(C)c2ccccc12
    10, 10, -5, 1, 0.4, -6
CCOC(=O)c1cc2oc(C)cc2n1CC(=O)OC1CCCCC1
    -13, -9, -11, 1, 0.0, -4

# Other entries.
SMILES,TRPML1 blocker,TRPV1 potentiator,D2 PAM,CtBP-E1A blk,TRPML1 agonist,Six1-Eya2 inh
ON=C1C2CC=C(c3ccccc3)C1CCC2 (stereo unspecified),-13,·,-5,-3,1.8,7
COCCNC(=S)NC12CC3CC(CC(C3)C1)C2,5,8,-5,0,-1.0,-3
CN(C)S(=O)(=O)c1ccc(NC(=O)c2cccnc2)cc1,5,-6,-16,-5,-0.5,-1
COc1ccccc1OCCSc1nc2ccccc2n1CCC(=O)O,-8,-2,-3,2,0.9,1
Clc1ccc(C(Cn2ccnc2)OCc2c(Cl)cccc2Cl)c(Cl)c1 (stereo unspecified),76,-3,2,-11,2.1,-3
Cc1ccc2c(c1)c1c(n2C)C(=O)CCC1,-8,7,-17,10,1.9,11
Cc1cc(NC(=O)CN2C(=O)NC(C)(c3ccccc3Cl)C2=O)no1 (stereo unspecified),15,·,2,1,-0.3,-3
Cc1nc2ccccc2c(=O)n1NCc1cccs1,-15,·,4,-13,-0.6,-3
